# Compound activity deposited in PubChem by several laboratories.
# PABP polyA inh: PABP poly(A) RNA binding inhibitors, primary screen, biochemical, fluorescence polarization, uHTS. Polyadenylate-binding protein 1 (Homo sapiens), P11940. inhibition, % at 35 µM. 1% of 290,000 active;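 active = 50% or more with normal probe brightness, or confirmed in later tests; about a fifth of its hits are not listed in these tables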;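 note: calls also rest on retests at 20 µM and on dose response follow-up; controls were probe without protein and protein plus probe with vehicle; some compounds called inactive have numbers as strong as hits; many hits fall short of the cut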
# Target sequence (P11940 whole entry, looked up): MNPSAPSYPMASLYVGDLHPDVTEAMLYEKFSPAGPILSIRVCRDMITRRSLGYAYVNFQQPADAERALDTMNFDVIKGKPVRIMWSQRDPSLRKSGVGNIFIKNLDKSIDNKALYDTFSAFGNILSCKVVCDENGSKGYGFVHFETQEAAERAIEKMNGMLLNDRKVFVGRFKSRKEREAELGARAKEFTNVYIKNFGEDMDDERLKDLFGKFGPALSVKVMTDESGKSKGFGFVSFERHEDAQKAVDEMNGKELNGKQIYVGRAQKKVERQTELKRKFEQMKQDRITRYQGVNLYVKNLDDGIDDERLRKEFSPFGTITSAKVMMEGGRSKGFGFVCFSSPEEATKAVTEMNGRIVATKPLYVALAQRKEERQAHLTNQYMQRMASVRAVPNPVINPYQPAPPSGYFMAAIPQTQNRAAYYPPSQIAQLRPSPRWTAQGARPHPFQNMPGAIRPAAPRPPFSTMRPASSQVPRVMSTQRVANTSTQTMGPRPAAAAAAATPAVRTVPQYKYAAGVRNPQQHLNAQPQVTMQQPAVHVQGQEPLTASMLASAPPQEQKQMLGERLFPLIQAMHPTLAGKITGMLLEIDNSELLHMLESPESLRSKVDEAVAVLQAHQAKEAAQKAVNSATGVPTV
# Rce1 inh: yeast Rce1p protease inhibitors, primary screen, biochemical, fluorescence, cell-free homogeneous. yeast membranes, quenched prenylated peptide cleavage fluorescence. CAAX prenyl protease 2 (Saccharomyces cerevisiae (strain ATCC 204508 / S288c)), Q03530. calls only. 0.27% of 290,000 active. AID 2563, 2010;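 active = fall in fluorescence gain of 50% or more versus controls, with final raw signal at or below 3038400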;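 note: plate controls were neutral control wells for no effect and wells lacking membranes for full effect; tested at 10 µM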
# eIF4H inh: human eIF4H binding inhibitors, primary screen, translation initiation inhibitor project, biochemical, uHTS, fluorescence polarization; Eukaryotic translation initiation factor 4H (Homo sapiens), Q15056; eIF4H fluorescence polarization binding assay; inhibition, % at 35 µM; 0.94% of 290,000 active; AID 2012, 2009;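 active = 50% or more with normal probe brightness, or confirmed in later tests; about a fifth of its hits are not listed in these tables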;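 note: calls also rest on retests at 20 µM and on dose response follow-up; 0% = protein and probe with vehicle and 100% = probe without protein; strong numbers were not always called active; many hits fall short of the cut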
# CSC inhib: cancer stem cell viability inhibitors, primary screen, luminescence; cancer stem cell-like cells viability; inhibition, % at 7.5 µM; 1.1% of 300,000 active;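 active = mean at 75% or more and at least half the replicates too; tested in HMLE shEcad cells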;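 note: 0% = median of negative and 100% = median of positive control wells; the first replicate is given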
# MT1-MMP act inh: blockers of MT1-MMP proenzyme processing, primary screen, HT1080 RFP-PRO-GFP cells, GFP/RFP fluorescence; Matrix metalloproteinase-14 (Homo sapiens), P50281; GFP/RFP ratio fluorescence, overnight; percent of plate control window, DMSO zero; GFP/RFP ratio change, % at 20 µM; 0.061% of 360,000 active; AID 651647, 2012;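 active = GFP/RFP ratio change of at least 30% with cell ATP level not reduced by more than half and red fluorescence within 50% of control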; note: strong numbers were not always called active
#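 Assay system: RFP-PRO-GFP reporter HT1080 cells; read-out basis: GFP/RFP fluorescence ratio; benchmarks: DMSO wells and RFP-L50D-GFP cells; doses: 20 µM single dose, 1% DMSO; schedule: overnight cell settling, then overnight compound exposure, 37 °C, 5% CO2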
# Env fusion inh: inhibitors of HIV-1 Env-driven cell-cell fusion, primary screen, HeLa-JRFL effector, CEM21 target cells, luciferase | AID 651610, 2012 | inhibition, % at 12.3 µM | 1.1% of 360,000 active;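 active = mean replicate inhibition score of at least 50 and every replicate individually at or above 50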;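 note: 0% = plate neutral controls and 100% = maraviroc near 300 nM; one replicate is shown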
# Yeast UUG start: modulators of yeast start codon fidelity, primary screen, whole organism, S. cerevisiae, single point, plate reader. 0.13% of 350,000 active. activity score, % at 18.7 µM. S. cerevisiae UUG-firefly luciferase reporter, luminescence/redox ratio;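 active = replicate mean at a twofold rise or more, about +100% in these data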;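 note: firefly luciferase made from a UUG start codon reports start codon fidelity; reporter light over untreated wells divided by growth signal over untreated wells; some hits fall short of that in this replicate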
# eIF4H inh retest: further read-out of eIF4H inh, marked with its call; inhibition, %; compound at 20 µM; confirmation average;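 mean of two retest wells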
# PABP polyA inh retest: also measured in PABP polyA inh; calls as there; inhibition, %; compound at 20 µM; confirmation repeats;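 mean of two retest wells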
# MT1-MMP act inh RFP: also measured in MT1-MMP act inh; calls as there; RFP signal change, %; measured here: RFP expression control read;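 0 = vehicle wells; hits needed this value within 50% of zero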
# * marks the source's active call; other numbers are inactive results; i = inactive; . = not tested or not shown. Not all compounds are listed. The share of hits here may be higher or lower than overall.
SMILES,PABP polyA inh,Rce1 inh,eIF4H inh,CSC inhib,MT1-MMP act inh,MT1-MMP act inh RFP,Env fusion inh,Yeast UUG start,others
Cc1nc(Oc2ccc(S(=O)(=O)N3CCOCC3)cc2Cl)c2c3c(sc2n1)CCCC3,10,i,-1,-5,-13,-19,.,.,
CC(=O)c1ccc(S(=O)(=O)NCCC(=O)OCC(=O)NCCc2ccccc2)cc1,14,i,-4,2,-1,4,-11,-6,
C/C(CC(=O)NCC(C)C)=N\NC(=O)COc1cc(C)c(Br)cc1Br,-9,i,-2,2,-1,2,-12,.,
Cc1ccc(-c2csc(NC(=O)c3ccno3)n2)cc1,25,i,32,13,-2,3,-46,-25,
O=C(Cn1cnc2c(cnn2-c2ccc(F)cc2)c1=O)NCc1ccco1,6,i,0,36,0,-9,.,.,
O=C(c1ccc(OC2CCN(Cc3ccccc3OC(F)F)CC2)cc1)N1CCCC1,11,i,-7,.,3,0,10,-15,
O=C(c1cccs1)N1CCN(S(=O)(=O)N2CCOCC2)CC1,4,i,2,-16,0,4,.,.,
Cc1sc(NC(=O)C2CCCCC2C(=O)O)c(C(N)=O)c1-c1ccc(C(C)C)cc1 (stereo not given),-2,i,-2,14,3,-3,.,-3,
COc1ccc(-c2c(NC(=O)c3ccco3)n(-c3ccccc3)nc(C)c2=O)cc1,-15,i,-9,-3,2,2,6,.,
Cn1cc(SCC(=O)NCc2ccc3c(c2)OCO3)c2ccccc21,-11,i,-10,-2,3,1,2,-6,
O=c1[nH]ncc(N2CCN(C(c3ccccc3)c3ccccc3)CC2)c1Cl,-1,i,-9,2,-9,-5,-19,.,
O=C(CCC1CCCN(C(=O)CCCc2ccccc2)C1)N1CCN(c2ccccn2)CC1 (stereo not given),16,i,1,-13,-4,-15,-1,-12,
Cc1c(NC(=O)/C(C#N)=C/c2ccc(-c3ccccc3Cl)o2)c(=O)n(-c2ccccc2)n1C,4,i,5,5,9,-2,.,.,
COc1ccc(CN2CCN(S(=O)(=O)c3ccc(F)cc3)CC2)cc1OC,-10,i,-5,-7,5,2,-14,-5,
Cc1ccc(CN2CCCOCCS2(=O)=O)cc1,6,i,-4,-20,3,3,-5,-7,
COc1ccc(S(=O)(=O)NCc2c(-c3ccccc3)noc2C)c(OC)c1,-3,i,-3,-8,-2,0,-8,-8,
CCOC(=O)C1C(=O)CC(C)(O)C(C(=O)OCC)C1c1ccc(Br)o1 (stereo not given),2,i,-6,-7,.,.,.,.,
CC(=O)Nc1cccc(/C(C)=N/NC(N)=S)c1,-10,i,7,0,0,2,-4,-17,
CCCc1ncc(C(O)c2cccc(OC)c2)n1C (stereo not given),8,i,4,1,-2,-2,-19,.,
Cc1cc(N)ccc1NC(=O)CN1CCCC1,9,i,5,-14,-1,-3,1,2,
COc1cc(CN(C)Cc2nc3cc(C(F)(F)F)ccc3c(=O)[nH]2)ccc1OC(F)F,-12,i,-1,-1,3,-1,25,-12,
COC(=O)c1ccc(CSc2ncnc3c2nnn3-c2ccc(F)cc2)o1,-5,i,10,2,2,2,.,.,
Cc1nn(C(=O)c2ccccc2)c2c1C(=O)CC(C)(C)C2,-13,i,0,-10,3,3,-54,-5,
Cc1cccc(N2CCN(CC(=O)Nc3ccc(-n4cnnn4)cc3)CC2)c1C,-2,i,1,-6,2,3,.,.,
CCOc1ccc(NC(=O)CCC(=O)Oc2ccc(C)cc2)cc1,-2,i,-10,9,3,8,10,-13,
O=C(NCc1nnnn1-c1ccc(F)cc1)c1ccc2c(c1)OCO2,.,.,.,.,-1,0,-24,-21,
CCC(C)[C@H](Nc1nc(-c2ccccc2)nc2c1oc1ccccc12)C(=O)O (stereo not given in full),5,i,-4,59,1,1,.,-9,
CN(C)C(=S)Nc1cccc(F)c1,7,i,-10,0,-1,1,3,-19,
CN(C)c1oc(-c2ccccc2F)nc1C#N,-25,i,-8,1,3,4,-58,-21,
COC(=O)c1cc(-c2cccc(OC)c2)on1,1,i,5,2,10,15,.,-19,
N#Cc1cnn(CC2CCCCC2)c1N,8,i,-2,-12,3,5,.,1,
Cc1ccc(NC2=C([N+](=O)[O-])CS(=O)(=O)C2)cc1,5,i,3,-2,13,4,-29,.,
COCCn1c(C)cc(C(=O)COC(=O)c2ccc(Cl)c(S(N)(=O)=O)c2)c1C,.,i,.,-3,-2,-5,-63,-51,
O=C(Cn1cnc2ccccc21)OCC(=O)N1CCCCC1,.,.,.,-13,-1,3,7,-10,
COc1ccccc1CC(=O)Nc1ncc(C)s1,2,i,-8,-3,-6,-1,18,-13,
CC(C)(C)NC(=O)NC(=O)COC(=O)CNC(=O)c1cccc(F)c1,0,i,5,.,4,3,.,-10,
Cn1c(N)c(C(=O)CSc2ncn[nH]2)c(=O)n(C)c1=O,9,i,-10,-4,3,2,10,-19,
CC(=O)c1cccc(NC(=O)CN(c2cccc(F)c2)S(C)(=O)=O)c1,-8,i,11,-16,-3,-1,.,1,
O=C(COC(=O)c1ccc(Cl)cc1)NC1CCCCCC1,.,.,.,-4,0,3,.,-15,
Cc1ccc(C(=O)OCC(=O)NNC(=O)COc2ccc(Cl)cc2)c(O)c1,.,i,.,6,2,4,7,-18,
Cc1cccc(N/C=C(\[N+](=O)[O-])S(=O)(=O)c2ccccc2)c1,8,i,-6,-10,3,1,-5,.,
Cc1cc(Cl)ccc1NC(=O)CN1CCCC1,10,i,9,-6,1,1,-1,-16,
O=C(CCCN1C(=O)c2ccccc2C1=O)Nc1ccccn1,0,i,1,0,0,4,9,.,
O=C([C@@H]1CC=C[C@@H]2CCN(C3CC3)C(=O)[C@@H]21)N1CCN(c2ccccc2)CC1,.,i,.,1,-1,3,-17,-11,
Cc1ccc(NS(=O)(=O)c2cc(NC(=O)C(C)Oc3ccccc3)ccc2C)c(C)c1 (stereo not given),10,i,-5,8,-11,-20,-19,-6,
Cc1cc(C)nc(NC(=O)c2c(C(=O)O)noc2C)n1,-19,i,6,-12,4,4,-5,-18,
COc1ccc(-c2cn3cc(C)ccc3n2)cc1Br,0,i,-1,22,7,-3,.,.,
N#Cc1ccc(-c2c(-c3ccccc3)ncc3cc(F)ccc23)cc1,.,.,.,1,-8,-8,-44,-3,
CCN(CC)C(=O)Oc1ccc2c(=O)c(-c3ccc(OC)cc3)c(C)oc2c1,2,i,-5,-6,1,-7,12,-23,
Cc1ccccc1-c1nsc(SCC(=O)NCc2ccc3c(c2)OCO3)n1,-25,i,-3,27,3,2,12,.,
NC(=S)NN=C1C2CC3CC(C2)CC1C3,1,i,7,16,0,2,-20,.,
CC(C)C(CO)N1CCN(Cc2ccccc2)CCC1=O (stereo not given),20,i,-5,-13,1,-2,12,-19,
CCCCCCN1CCN(C2CN(C3CCCCC3)S(=O)(=O)C2)CC1 (stereo not given),.,.,.,.,6,4,-8,0,
O=S(=O)(CCNCCc1ccccc1)NCc1ccccc1,.,.,.,.,4,5,-5,-8,
O=C(Nc1ccc(S(=O)(=O)N2CCCC2)cc1)c1cccc(OC(F)F)c1,.,.,.,7,-1,2,38,-33,
Cc1c(C(=O)N/N=C/c2ccc(N(C)C)cc2)[nH]c2ccc(Cl)cc12,-19,i,-7,52,4,-8,-207,.,
CCc1nc2c(OCCOc3ccc(F)cc3)cccn2c1N(C)C(=O)c1ccccc1F,.,.,.,.,3,4,6,-40,
[O-][n+]1c2ccccc2cc2ccccc21,.,i,.,-4,-2,-9,0,19,
CCOC(=O)c1cc(S(=O)(=O)N2CCN(C(=O)OCC)CC2)cn1C,-16,i,3,3,6,-1,.,-2,
CCOC(=O)c1c(NC(=S)NC)sc2c1CC(C)(C)SC2,-6,i,52*,4,-2,0,-22,.,eIF4H inh retest=74*;PABP polyA inh retest=42
# Later entries:
SMILES,PABP polyA inh,Rce1 inh,eIF4H inh,CSC inhib,MT1-MMP act inh,MT1-MMP act inh RFP,Env fusion inh,Yeast UUG start,others
Cc1nn(CC(=O)N(CC(C)C)C2CCS(=O)(=O)C2)c(C)c1[N+](=O)[O-] (stereo not given),.,.,.,-14,1,2,-4,-8,
Cc1n[nH]c(=O)c2c1nnn2Cc1ccc(F)cc1,-10,i,-8,-4,-1,4,-10,0,
CC(=O)Nc1ccc(S(=O)(=O)NCCC(=O)OCC(=O)c2ccccc2)cc1,.,i,.,.,3,1,-10,.,
CC(=O)N=c1c(C#N)cc2c(=O)n3cccc(C)c3nc2n1Cc1ccco1,50*,i,72*,-15,-3,7,-14,-10,
Cc1nc2nc(SCC(=O)NCCCN3CCCC(C)C3)nn2c(C)c1Cc1ccccc1Cl (stereo not given),.,i,.,-1,-2,0,4,-2,
COc1cccc(C2NC(=O)NC(C)=C2C(=O)Nc2cc(OC)ccc2OC)c1 (stereo not given),-1,i,2,-4,1,4,8,-10,
COc1ccc(/C=C/C(=O)OCC(=O)NCC2CCCO2)cc1 (stereo not given),-12,i,7,-16,0,1,2,.,
Cc1n[nH]c(=S)n(/N=C/c2cccs2)c1=O,11,i,-4,-10,-3,1,12,-17,
Cc1noc(C)c1CSc1nc2ccccc2c(=O)n1-c1ccccc1,-5,i,-2,6,-3,-14,.,-12,
N#CCn1c(CCl)nc2ccccc2c1=O,-4,i,-2,-3,-2,0,-7,.,
Cc1cn2c(-c3ccc(Cl)cc3)nnc2s1,-11,i,-9,1,-2,4,0,-10,
CCOc1cc(NC(=S)Nc2cccc(OC)c2)c(OCC)cc1NC(=O)C1CC1,-11,i,2,-21,6,3,-170,-25,
CCOc1ccc(Nc2ncnc3c2cnn3C)cc1,-9,i,-8,-8,-3,-1,-30,2,
COc1ccccc1-c1cc(C(=O)N2CCN(c3ccccc3OC)CC2)no1,-5,i,2,12,4,0,.,15,
CS(=O)(=O)N(Cc1ccccc1)c1ccc(C(=O)NCCSc2ccccn2)cc1,8,i,-4,0,-4,0,.,-17,
Cc1ccc(NC(=O)c2nc[nH]c2C(=O)N2CCCCC2)c(C(=O)c2ccccc2)c1,-1,i,-3,-10,.,.,.,3,
COc1ccc(C2C(C(=O)N3CCOCC3)=C(C)NC3=C2C(=O)CC(C)(C)C3)c(OC)c1 (stereo not given),2,i,-3,0,2,0,-13,.,
O=[N+]([O-])c1cccc(/C=N/Nc2cc(Cl)nc(-c3ccccc3)n2)c1,-6,i,-12,0,-4,-18,.,-15,
O=C(Nc1cccc(NC(=O)c2cccc([N+](=O)[O-])c2)n1)c1cccc([N+](=O)[O-])c1,4,i,-5,0,-2,-2,-21,-2,
